Compound activity from PubChem.
E coli growth: E. coli growth inhibition, primary screen, OD600 | Escherichia coli growth, 23 h; stronger effect = lower value | OD600 absorbance (no concentration beside the values) | hit rate 0.21% among 330,000 | AID 1053175, 2014;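 active = OD600 absorbance below the run mean of sample wells minus 3.6 SD, in any replicate, cut at about 0.56 in these data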;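 also: stock transfer was 300 nL into about 60 µL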
Vif TR-FRET: inhibitors of Vif binding to APOBEC3G peptide, primary screen, biochemical, TR-FRET, GST-Vif 1-94, biotin-A3G peptide, dose response retest (AID 1117319). Virion infectivity factor (Human immunodeficiency virus type 1 group M subtype B (isolate …. TR-FRET GST-Vif / biotin-A3G peptide binding; higher % means a stronger effect; test concentration not given here; strong numbers were not always called active. one-dose inhibition, %; IC50 in µM for titrated hits. hit rate 0.57% among 260,000;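 active = above the screen mean plus three standard deviations and confirmed in dose response; inconclusive = results disagree or hit not tested in dose response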;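 also: Vif residues 1-94 fused to GST binding biotinylated APOBEC3G peptide 110-148; 0% = full assay without inhibitor and 100% = GST in place of GST-Vif; retest series ran down from 100 µM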
Ecoli rRNA inh: reduced GFP signal of wild-type E. coli, primary screen, bacterial rRNA inhibitor project, GFP/RFP fluorescence, OD600, single point | hit rate 1.6% among 350,000 | E. coli WT GFP vs humanized-ribosome RFP mutants, 24 h; stronger effect = lower value; DMSO median 0, no signal -100 | GFP signal change (wild-type ribosome), % (test concentration not listed);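 active = significant combined selectivity score with lowered wild-type GFP, culture density cut under 30%, mutant RFP and density less affected; inactive = any of these conditions unmet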; also: one replicate is shown; some compounds called inactive have numbers as strong as hits
HNF4A DNA FP: change in binding of human HNF4A to DNA, primary screen, biochemical, fluorescence polarization, FITC-DNA | Hepatocyte nuclear factor 4-alpha (Homo sapiens), P41235 | 1 h | activity change, % at 10 µM | hit rate 0.3% among 360,000; in the data active = activity change above about 30%, passing the limit was not always enough;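 also: controls were the assay level and a saturating level of protein; the project sought stronger binding though the title names inhibitors; some compounds called inactive have numbers as strong as hits; positive values seem to mean higher polarization but the record does not say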
Target sequence (P41235 whole entry, looked up): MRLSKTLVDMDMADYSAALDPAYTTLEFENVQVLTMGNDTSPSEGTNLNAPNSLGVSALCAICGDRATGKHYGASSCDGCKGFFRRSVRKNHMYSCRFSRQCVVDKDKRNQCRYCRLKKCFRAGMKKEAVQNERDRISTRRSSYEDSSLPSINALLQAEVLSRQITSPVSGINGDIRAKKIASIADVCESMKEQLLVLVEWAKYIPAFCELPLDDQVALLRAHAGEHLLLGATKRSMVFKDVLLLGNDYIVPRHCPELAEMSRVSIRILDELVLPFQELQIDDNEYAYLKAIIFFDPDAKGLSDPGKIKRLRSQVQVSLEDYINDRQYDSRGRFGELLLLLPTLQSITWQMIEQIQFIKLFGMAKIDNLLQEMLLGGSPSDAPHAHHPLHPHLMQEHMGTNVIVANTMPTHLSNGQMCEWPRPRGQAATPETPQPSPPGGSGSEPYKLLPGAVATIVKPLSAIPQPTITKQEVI
ALR H2O2 inh: inhibitors of human ALR sulfhydryl oxidase, primary screen, biochemical, H2O2 detection, HRP-luminol luminescence, single point. FAD-linked sulfhydryl oxidase ALR (Homo sapiens), P55789. purified ALR, DTT oxidation. inhibition, % (no concentration beside the values). hit rate 3.8% among 290,000. AID 485317, 2010;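 active = mean and each replicate at 75% or more; inconclusive = only one of the two met; inactive = neither met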;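 also: stock transfer was 7.5 nL into about 7.5 µL; 0% = neutral wells and 100% = wells with inactivated enzyme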
AF4-AF9 inh: inhibitors of AF4 peptide binding to AF9, primary screen, biochemical, AlphaScreen, biotin-AF4 peptide, FLAG-AF9, single point. hit rate 0.47% among 350,000. inhibition, % at 10 µM;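 active = every replicate reaching a set inhibition limit, whatever the replicate mean, cut at about 25% in these data; inconclusive = mean inhibition reaches that limit but some replicates miss it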;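 also: 0% = plate neutral control median and 100% = total signal loss; the record names both 10 and 1 µM as test concentration; the first replicate is given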
Target sequence (P42568 whole entry, looked up): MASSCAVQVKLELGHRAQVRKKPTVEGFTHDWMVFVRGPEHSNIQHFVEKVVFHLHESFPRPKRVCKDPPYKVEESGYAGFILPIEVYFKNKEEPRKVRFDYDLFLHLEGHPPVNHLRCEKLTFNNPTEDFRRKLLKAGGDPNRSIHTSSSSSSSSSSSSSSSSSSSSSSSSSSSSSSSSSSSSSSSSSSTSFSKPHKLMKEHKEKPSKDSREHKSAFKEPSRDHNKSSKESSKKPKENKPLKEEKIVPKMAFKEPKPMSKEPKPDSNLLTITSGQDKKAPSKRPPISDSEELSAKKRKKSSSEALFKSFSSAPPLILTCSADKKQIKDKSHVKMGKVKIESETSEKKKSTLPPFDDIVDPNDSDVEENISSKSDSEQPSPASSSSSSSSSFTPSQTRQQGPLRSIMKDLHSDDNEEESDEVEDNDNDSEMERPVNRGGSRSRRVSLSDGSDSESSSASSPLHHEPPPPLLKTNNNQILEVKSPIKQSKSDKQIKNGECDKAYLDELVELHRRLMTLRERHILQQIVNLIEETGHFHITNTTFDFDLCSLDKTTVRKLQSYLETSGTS
FGF22 binding: binders of human FGF22 protein, primary screen, FGF22 synaptogenesis inhibitor project, biophysical, thermal shift, single point; hit rate 1.5% among 340,000; calls only at 9.99 µM; recombinant FGF22 thermal shift, SYPRO orange fluorescence; percent of sucrose octasulfate shift, DMSO zero; AID 651658, 2012;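 active = melting point raised past a set limit in the mean and every replicate; inconclusive = no clear call; three in four hits are not shown here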
Ecoli rRNA inh OD600: recorded beside Ecoli rRNA inh, whose call it bears; OD600 change, %; measured here: OD600 growth;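 optical density of the mix in the first replicate; 0 = DMSO median and -100 = no signal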
Ecoli rRNA inh RFP: also measured in Ecoli rRNA inh; calls as there; RFP signal change, %; measured here: RFP humanized mutant strains;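 first replicate; 0 = DMSO median and -100 = no signal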
* hit, by the source's call; i = inactive; ? = inconclusive; · = no result given; & = joins results of further samples. A portion of the library, so the mix of outcomes need not match the whole.

SMILES	E coli growth	Vif TR-FRET	Ecoli rRNA inh	Ecoli rRNA inh OD600	Ecoli rRNA inh RFP	HNF4A DNA FP	ALR H2O2 inh	AF4-AF9 inh	FGF22 binding
Cc1cccc(NS(=O)(=O)c2ccc3c(c2)NC(=O)CO3)c1C	0.68	10%	-16	-18	1.3	3.4	-3	-1.3	i
NC(=O)c1ccc(NC(=O)COC(=O)CC(NC(=O)c2ccccc2Cl)c2ccccc2)cc1 (centres undefined)	0.66	·	-7	1	-1.0	1.6	-13	0.9	·
CC(C)NC(=O)Nc1ccc2c(c1)C(=O)N([C@@H](C)CO)C[C@@H](C)[C@H](CN(C)S(=O)(=O)c1ccc(F)cc1)O2	·	·	5	5	-2.5	·	·	-0.6	i
COCC(=O)N1CC[C@@H]2[C@H](CO)Nc3ccc(-c4cccc(C#N)c4)cc3[C@@H]21	·	·	-10	9	4.3	·	·	-3.0	i
C[C@@H]1CN([C@@H](C)CO)C(=O)Cc2cc(NC(=O)Nc3ccc(F)cc3)ccc2O[C@H]1CN(C)Cc1ccc2c(c1)OCO2	·	·	-16	-52	34	·	·	2.0	i
CC(C)C(N)c1csc(NC(=O)Nc2ccc(OC(F)(F)F)cc2)n1 (centres undefined)	·	·	-54	-70	-15	0.1	·	2.8	i
CN(C)S(=O)(=O)c1ccc(NC(=O)COC(=O)c2ccccn2)cc1	0.67	-1%	·	·	·	0.8	-13	·	·
CC1CCCCN1CC(O)COc1ccc(OCC(O)CN2CCCCC2C)cc1 (centres undefined)	0.62	3%	7	9	2.1	1.2	-4	6.6	i
CCc1cc2cc(C)ccc2nc1SCC(=O)N1CC(=O)Nc2ccccc21	0.7	·	-10	-49	19	1.8	1	-1.0	i
CN(C)C(=O)[C@H]1[C@H](CO)[C@H]2Cn3c(ccc(-c4ccncc4)c3=O)[C@@H]1N2CC1CC1	·	·	4	4	-3.4	·	·	-1.0	i
Cc1ccc(S(=O)(=O)N(C)C[C@H]2Oc3ccc(NC(=O)CCCN(C)C)cc3C(=O)N([C@@H](C)CO)C[C@@H]2C)cc1	·	·	-1	6	-0.7	·	·	0.8	i
COc1ccc(-c2c([C@H]3[C@@H]4C=CCC[C@@]4(C)C(=O)N3Cc3ccccc3)ccc3ccccc23)cc1OC	·	-1%	8	12	-0.9	0.7	0	4.9	i
CCc1cc2c(nc1CC)CCCN2S(=O)(=O)c1ccc(C(F)(F)F)cc1	·	·	-9	-35	1.9	·	·	-5.2	·
Clc1cccc(Cl)c1-c1nnc2ccc(N3CCOCC3)nn12	0.7	-3%	·	·	·	2.3	-10	·	·
COc1cc(C(=O)Nc2nnc(CC(C)(C)C)s2)c([N+](=O)[O-])cc1OC	0.72	-5%	·	·	·	0.7	-2	·	·
O=C(N/N=C/c1c[nH]c2ccccc12)c1cc(-c2ccc(-c3ccccc3)cc2)n[nH]1	·	-3%	·	·	·	3.7	-8	·	·
C[C@H](CO)N1C[C@H](C)[C@@H](CN(C)C(=O)Nc2ccc(C(F)(F)F)cc2)Oc2ncc(-c3ccc(C#N)cc3)cc2C1=O	·	·	-5	-2	-0.4	·	·	-0.2	i
O=C1/C(=C\c2cc([N+](=O)[O-])ccc2O)SC(=S)N1Cc1ccc(Cl)cc1	0.59	0%	-52	-75	-20	59	56	1.6	i
CN(C)c1nc(N(C)C)nc(N(C#N)Cc2ccc(Cl)cc2)n1	0.66	-7%	1	18	-1.2	4.0	-6	-3.7	i
O=C(NCc1ccco1)c1cc2nc(-c3ccc4c(c3)OCO4)cc(C(F)(F)F)n2n1	0.7	4%	·	·	·	-3.7	16	·	·
CCOc1ncccc1C(=O)Nc1ccc2c(C)cc(=O)oc2c1	0.68	-3%	·	·	·	0.8	-8	·	·
C=CCn1c(SCC(=O)N2c3ccccc3Sc3ccccc32)nnc1-c1ccco1	0.67	-7%	-22	-15	39	0.4	·	6.7	i
CCCNC(=O)N1C[C@@H]2[C@H](c3ccccc31)[C@H](CO)N2C(=O)c1ccncc1	·	·	1	1	0.6	·	·	-1.1	i
S=C(NCCc1ccccn1)Nc1ccc(Cl)c(Cl)c1	0.65	-2%	·	·	·	0.1	29	·	·
COc1ccc(Cl)cc1/C=C(\C#N)C(N)=O	0.69	-7%	9	1	-0.8	-1.2	5	-4.8	·
O=C(CSc1ncnc2ccccc12)Nc1ccc2c(c1)OCO2	0.71	3%	-11	-12	0.5	-3.0	98*	-2.3	i
Cn1c2c(sc1=O)CCC2	0.7	1%	0	8	-3.8	-1.1	·	-2.8	i
CCCCc1ccc(-c2nn[nH]n2)nc1	·	-3%	-12	0	1.5	1.2	·	-2.3	i
Cc1ccc(S(=O)(=O)Nc2ccc3c(c2)C(=O)N([C@H](C)CO)C[C@@H](C)[C@H](CN(C)S(=O)(=O)c2ccc(Cl)cc2)OCCCC[C@H](C)O3)cc1	·	·	0	5	6.2	·	·	-17	i
Fc1ccccc1N1CCN(c2nnnn2-c2ccccc2)CC1	0.65	16%	-4	-12	1.3	2.1	-3	-10	i
COc1ccc(Nc2nc(Nc3ccc(OC)cc3)nc(-n3[nH]c(=O)c(C)c3C)n2)cc1	0.67	4%	·	·	·	-1.0	84*	·	·
O=C(Cc1ccc(Cl)cc1)NCc1nc(-c2ccccc2)no1	0.73	-7%	·	·	·	-3.9	-7	·	·
CCC(=O)NNc1nc2c(F)cccc2s1	0.65	20%	19	14	1.5	-0.5	5	-1.3	i
COc1ccc2c3c([nH]c2c1)[C@H](CO)N(C(=O)Nc1ccc(F)cc1)CC31CCN(C(=O)c2ccccc2F)CC1	·	·	-1	-9	0.3	·	·	-1.7	i
Cc1nc(Nc2cccc(O)c2)c2oc3ccccc3c2n1	0.65	-1%	-19	-44	-14	0.5	?	-4.1	i
COc1ccc(C2CC(c3cccs3)Nc3nnnn32)cc1 (centres undefined)	0.66	7%	-8	-11	-0.3	-0.8	-8	0.7	i
O=CNc1cc(-c2cccc(F)c2)cn2c(-c3ccc(F)cc3)cnc12	·	·	2	5	5.9	6.0	·	-0.6	i
O=C(Nc1ccncc1)Nc1cccc(Cl)c1	0.54	·	-37	-60	4.1	2.3	-3	0.1	i
C[C@H](CO)N1C[C@H](C)[C@@H](CN(C)Cc2ccc(C(=O)O)cc2)Oc2c(NC(=O)c3cnccn3)cccc2C1=O	·	·	5	10	-1.3	·	·	-2.3	i
CCCN(C)C[C@@H]1Oc2ncc(Br)cc2C(=O)N([C@H](C)CO)C[C@@H]1C	·	·	10	14	-2.5	·	·	1.8&-3.5	i
O=C(NCCc1ccccc1)c1cnc(Cl)c(Cl)c1	0.66	3%	5	5	-5.6	-5.6	·	-1.0	i
Cc1ccc(Cc2cnc(NC(=O)/C(C#N)=C/c3ccc(-c4ccccc4[N+](=O)[O-])o3)s2)cc1	0.75	-1%	·	·	·	13	0	·	·
CCc1ccc(NC(=O)c2cnc(N3CCN(c4ccccn4)CC3)c3ccccc23)cc1	0.72	-7%	-5	0	-1.4	-3.5	-2	-1.4	·
C[C@@H]1CN([C@@H](C)CO)C(=O)c2ccccc2-c2ccccc2CO[C@@H]1CN(C)C(=O)N[C@H](C)c1ccccc1	·	·	-2	-3	-4.2	·	·	-6.2	i
CCOC(=O)C1=C(C)N(C[C@@H]2CC[C@@H](Cc3ccc(-c4ccccc4)cc3)O2)C(=O)NC1c1cccc2ccccc12 (some centres undefined)	0.73	-2%	22	13	2.8	-1.5	·	1.0	i
CC(C)(C)c1ccc(C(=O)NCCn2c(N)c(C#N)c3nc4ccccc4nc32)cc1	0.75	-13%	-10	-6	3.1	1.4	-24	-3.4	·
CN1CCN(c2ccc(CNS(=O)(=O)c3ccc(Cl)cc3)cc2)CC1	0.7	5%	19	17	4.6	-3.1	1	-1.8	i
CCCCSCCCNC(=O)CCCN1C(=O)c2ccccc2Sc2ncccc21	0.64	-2%	6	-5	4.2	2.9	-7	1.9	i
Cc1noc(C)c1NC(=O)Nc1ccc2c(c1)C(=O)N(C)[C@@H]1CC[C@@H](CC(=O)NCc3ccc(Cl)cc3)O[C@H]1CO2	·	·	-1	4	-1.3	·	·	3.5	i
Cc1ccc(-c2nnc(SCC(=O)N3CCN(c4ccccc4)CC3)o2)cc1	0.69	-2%	·	·	·	-0.2	-8	·	·
O=c1oc2ccc(C#CC3(O)CCCCC3)cc2cc1-n1cc(C2(O)CCCCC2)nn1	0.66	·	9	6	0.0	-0.8	-1	·	i
Cn1cnnc1Sc1nc([N+](=O)[O-])nn1C	0.68	·	17	7	1.2	0.0	-40	0.1	i
O=C(NC1Cc2ccccc2C1)[C@H]1[C@H](CO)[C@H]2Cn3c(ccc(-c4ccccc4)c3=O)[C@@H]1N2	·	·	0	-2	-0.9	·	·	2.9	i
COc1ccc(CCNC(=O)CCCn2c(SCC#N)nc3ccccc3c2=O)cc1OC	0.7	-15%&5%	·	·	·	0.4	-4	·	·
CCOC(=O)c1c(NC(=S)NC(=O)c2ccc(Cn3cc(Cl)cn3)o2)sc2c1CCC(C)C2 (centres undefined)	·	15%	·	·	·	-0.1	-12	·	·
CC(C)[C@H](NC(=O)c1ccccc1)C(=O)OCC(=O)NCCC1=CCCCC1	0.72	·	·	·	·	-2.0	-16	-2.5	i
C[C@@H]1CN([C@@H](C)CO)S(=O)(=O)c2ccc(-c3cncnc3)cc2O[C@H]1CN(C)Cc1ccccc1	·	·	-6	-17	-3.9	·	·	4.9	i
CC1=C(C(=O)OCc2ccccc2)C(c2ccc([N+](=O)[O-])cc2)NC(=O)N1 (centres undefined)	0.68	·	-2	-2	-3.6	1.1	-21	0.3	i
Cc1ccc(NC(=O)/C(=C\c2cccs2)NC(=O)c2ccccc2)cc1	0.73	·	·	·	·	2.5	-1	·	·
O=C(c1ccc(N2CCOCC2)c([N+](=O)[O-])c1)N1CCN(c2ccccc2F)CC1	0.64	2%	-20	-36	-4.0	2.8	1	-8.3	·
Additional entries:
SMILES	E coli growth	Vif TR-FRET	Ecoli rRNA inh	Ecoli rRNA inh OD600	Ecoli rRNA inh RFP	HNF4A DNA FP	ALR H2O2 inh	AF4-AF9 inh	FGF22 binding
CSCC[C@H](NC(=O)C1=NN(c2c(F)c(F)cc(F)c2F)C(=O)CC1)c1nc2ccccc2[nH]1	0.72	10%	4	3	-3.1	3.3	-2	-1.0	i
Cn1c(SCc2ccccc2)nnc1-c1c[nH]c2ccccc12	0.72	-2%	-4	-21	4.5	0.6	-29	4.6	i
CC1=C(C(=O)OCc2ccccc2)C(c2ccoc2)C(C#N)=C(N)O1 (centres undefined)	0.71	8%	·	·	·	4.3	-7	·	·
CCc1ccc(N(CC(=O)NCc2ccc(OC)cc2)C(=O)CCC(=O)Nc2ccccn2)cc1	0.66	-3%	2	5	-0.4	0.9	·	-0.3	i
CCn1c2ccccc2c2nnc(SCC(=O)c3c(N)n(C)c(=O)n(C)c3=O)nc21	0.67	-1%	15	13	0.0	-1.6	0	-2.5	i
